NPYLR7 agonist: mosquito NPYLR7 agonism. HEK293T NPYLR7/Galpha15, GCaMP6s calcium fluorescence. activation, % at 10 µM. actives 0.15% (n = 270,000). AID 1259423; in the data active = activation above about 40%;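 also: 0% = vehicle and 100% = reference agonist at the receptor; some compounds past the cut are filed as inactive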
NPYLR7 agonist max-min: further read-out of NPYLR7 agonist, marked with its call; activation, %; measured here: Max-Min RFU normalised activation; some inactives read as strong as hits;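 span of the calcium signal over five minutes; 0% = vehicle and 100% = native peptide agonist; compound fluorescence can raise it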
An asterisk follows results filed as active; & = joins results of further samples. These rows are one share of the data. The share of hits here may be higher or lower than overall.

no.	Compound	NPYLR7 agonist	NPYLR7 agonist max-min
1	CCC1CCC(NC(=O)CCn2ccccc2=O)(C(=O)OC)CC1 (stereo not drawn)	1	-3
2	CCOc1ccc(N2C(=O)CC(N(CCc3ccc(S(N)(=O)=O)cc3)C(C)=O)C2=O)cc1 (stereo not drawn)	-7	-14
3	CC(=O)N1CCC(NC(=O)CCc2ccccc2F)CC1	2	1
4	CCCSc1nsc(N)n1	3	7
5	O=C(NCCc1ccc(O)cc1)C1CCCN(Cc2ccco2)C1 (stereo not drawn)	-11	-11
6	Cc1cccc(N2C(=O)CS/C2=N/NC(=O)c2ccc(Br)cc2)c1C	0	2
7	CS(=O)(=O)N1CCC(Oc2ccccc2C(=O)NCCCn2cccn2)CC1	19	5
8	Cc1nc(C(F)(F)F)ccc1C(=O)N1CCC1(C)C(=O)NS(=O)(=O)c1cccc(C#N)c1 (stereo not drawn)	5	7
9	O=C(c1cccc(Br)c1)N1CCCC(OCC2CC2)C1 (stereo not drawn)	-22	-14
10	CC(C)c1nn(C)c2nc(C(C)(C)C)[nH]c12	6	3
11	Cc1ncc(/C=C/C(=O)N(CC(F)(F)F)C2CCOC2)s1 (stereo not drawn)	-1	-2
12	CC(Cc1cccs1)NC(=O)Cn1nnnc1CN1CCOCC1 (stereo not drawn)	-1	-1
13	Cc1cc(C)c2[nH]c(=S)cc(C)c2c1	0	0
14	Cc1cc(F)ccc1Oc1cc(N2CCN(Cc3ccc(F)cc3)CC2)ncn1	-3	4
15	CCCc1cc(=O)[nH]c(SCc2cn3cc(C)ccc3n2)n1	-9&-3	-10&0
16	CC(C)c1cccc(C(C)C)c1NC(=O)Cn1cccn1	1	-2
17	COc1cccc(-c2nc(C=Nc3ccc(F)cc3)c(O)o2)c1	-6	-7
18	CCCn1c(SCc2nc(N)nc(N)n2)nc2sc3c(c2c1=O)CCC3	-3	3
19	CCN1C(=O)N(CC)C2C1N(C)C(=O)N2C (stereo not drawn)	2	3
20	COc1ccc(-c2nn(Cc3cccc(C)c3)c(=O)c3nc(C)sc23)cc1	1	-2
21	CNC(=O)c1cccc(N2CCC(c3ccccc3OC)C2)n1 (stereo not drawn)	1&5	0&4
22	Cc1cccc(N(C)c2cc(-c3cccc(O)c3)nc3ccnn23)c1	-6	-11
23	OCCC1CN(Cc2cccn2-c2ccccn2)CCN1Cc1ccccc1F (stereo not drawn)	-7	-8
24	COCCN(CC(=O)Nc1cc(C(C)(C)C)nn1-c1ccc(Cl)c(Cl)c1)C(=O)Nc1cccc(OC)c1	6	8
25	Cc1ccc(Nc2nc(NCC(C)O)nc3c2cnn3-c2ccccc2)cc1C (stereo not drawn)	3	2
26	CCNC(=O)NC(=O)Cn1cnc2scc(-c3ccccc3)c2c1=O	1	-1
27	CC(=O)Nc1ccc(S(=O)(=O)Oc2ccc(Cl)cc2CN(C(=O)CC(C)(C)C)C2CC2)cc1	12	25
28	O=C(CC1C(=O)NCCN1Cc1cccc(Oc2ccccc2)c1)NCCCn1cccn1 (stereo not drawn)	5	5
29	CN1C(=O)/C(=C2\SC(=S)N(C3CCS(=O)(=O)C3)C2=O)c2ccccc21 (stereo not drawn)	-9	-16
30	COc1ccc(-c2nnc3c4cnn(C)c4ncn23)cc1	18	6

Carrying on:
no.	Compound	NPYLR7 agonist	NPYLR7 agonist max-min
31	Cc1nnc(N2C(=O)c3ccc(C(=O)c4ccc(C(=O)O)cc4)cc3C2=O)s1	4	4
32	CCOC(=O)N1CCc2c(sc(NC(=O)c3ccccc3)c2-c2nc3ccccc3s2)C1	6	5
33	CN(C)C(=O)c1ccc(-c2ccc(F)c(F)c2)s1	5	11
34	Cc1[nH]c2ccc(C(=O)N3CCC4(CC3)CC(C(=O)O)N(C)C4)cc2c1C (stereo not drawn)	2	11
35	Cc1ccc(CN(Cc2ccc(F)cc2)C(=O)CN(CC(C)C)C(=O)c2ccc(Cl)cc2)s1	-3	1
36	Cc1cccc(NC(=O)Nc2ccc(N3CCCC3)c(C(=O)NC3CC3)c2)c1	9	15
37	CC(C)NC(=O)CN1CN(c2ccccc2)C2(CCN(C(=O)Nc3ccccc3Br)CC2)C1=O	12	15
38	CC1(C)CC2CC(C)(CN2S(=O)(=O)c2cccc(Cl)c2Cl)C1 (stereo not drawn)	5	2
39	CC(C)CCn1c(Sc2nc3ccccc3[nH]2)nc2c1c(=O)[nH]c(=O)n2C	2	0
40	CC(C)N1CC(NC(=O)c2cc(COc3cccc(F)c3)[nH]n2)CC1=O (stereo not drawn)	3	-4
41	c1ccc(CCNc2nccc3c2ncn3Cc2ccccc2)cc1	-5	-12
42	CCC1CN(C(=O)c2ccnc(C(C)C)n2)CCC(=O)N1Cc1ccccc1 (stereo not drawn)	-1	11
43	CCCCCCCCc1noc(-c2c(-c3ccccc3Cl)noc2C)n1	0	-1
44	Cc1ccnc(SCc2cc(=O)n3[nH]c(C)c(-c4ccccc4)c3n2)n1	-4	-4
45	Cc1ccc(-n2nc(-c3ccccc3F)cc2C(=O)NCCN2CCCCC2)c(C)c1	-5	-1
46	Cc1nnc2c(C(=O)NC(C)CC(C)C)cccn12 (stereo not drawn)	-6	-13
47	O=C1c2ccccc2S(=O)(=O)N1Cc1ccccc1Oc1ccccc1	0	13
48	CCc1cccc(C)c1NC(=O)CNc1cc(OC)c(OC)cc1C	11	2
49	CSc1ccc(-c2nc(CN3CCN(c4cnccn4)CC3)c(C)o2)cc1	2	4
50	Cc1cc(NC(=O)COc2cccc(F)c2)ccc1N1CCCC1=O	2	2
51	CC1(C)CN(CC2CCOCC2)c2ccccc2N1CC1CCOCC1	1	-1
52	CC(C(=O)Nc1ccc(F)c(Cl)c1)S(C)(=O)=O (stereo not drawn)	0	1
53	CC(CNc1ccc(-c2nccn2C)nn1)Oc1cccnc1 (stereo not drawn)	13	6
54	Cc1ccc(C(=O)N(CCCN(C)C)c2nc3ccc(F)cc3s2)cc1C	1	-2
55	O=C(NC(=S)Nc1ccccc1N1CCCC1)c1cccs1	-6	-9
56	O=C(NCCCn1ccnc1)C1CC(=O)N(c2ccc(Br)cc2)C1 (stereo not drawn)	17	14
57	COc1ccc(OC)c(C(=O)OC(C)C(=O)NC(C)(C)C)c1 (stereo not drawn)	-3	-5
58	CC(C)c1cc(NC(=O)c2cccc(CN3CC=CCC3)c2)n(C)n1	3	0
59	O=C1CSC(c2ccccn2)N1c1ccc(F)cc1 (stereo not drawn)	-1	-5
60	CCc1c(C)nn(CC(=O)N2CCCC(Nc3ccccc3)C2)c1C (stereo not drawn)	11	7

(next part)
no.	Compound	NPYLR7 agonist	NPYLR7 agonist max-min
61	CCN(C(=O)C(C)Nc1ccc2c(c1)OCCO2)C1CCS(=O)(=O)C1 (stereo not drawn)	6	4
62	CC(=O)N1CCC(C(=O)N2CCC(C(=O)NC(c3ccc(F)cc3)c3ccc4ccccc4n3)CC2)CC1 (stereo not drawn)	-3	-12
63	COc1ccccc1C(=O)NCCn1ncc2c(=O)n(Cc3ccccc3C)cnc21	-6	-11
64	COc1ccc(C=Nc2ccccc2Sc2c(C)n[nH]c2C)cc1OC	8	6
65	Cc1csc(C(NC(=O)N2CCC(CC(N)=O)CC2)C2CC2)n1 (stereo not drawn)	6	5
66	CN1CCN(C(c2ccccc2)c2ccc(Cl)cc2)CC1 (stereo not drawn)	-2&0	-4&-3
67	CC(OCC(O)CN1CCN(S(=O)(=O)c2cccc(F)c2)CC1)c1ccc(Cl)cc1 (stereo not drawn)	-2	-7
68	Fc1ccc(-c2noc3nc(NCCc4ccccc4)ccc23)cc1	0	-3
69	CN1CCN(c2ncnc(Oc3ccc4c(c3)OCO4)c2N)CC1	19	9
70	CC(C)(C)c1nc(=S)n(CN2CCCc3cc(F)cc(F)c32)[nH]1	-2	-3
71	O=C(CSc1ccc(F)c(F)c1)N1CCCCC1C1OCCO1 (stereo not drawn)	15	11
72	O=S(=O)(c1cccs1)N1C[C@@H](CO)[C@@H]2Oc3ccc(Cl)cc3[C@@H]21	1	12
73	Cc1cccnc1N1CCN(C(=O)c2cccc(-c3ccc(O)cc3)c2)CC1	6	3
74	CCc1nc2ccc(C(=O)N3CCN(S(=O)(=O)CC)CC3)cn2c1N(C)C(=O)c1cccc(OC)c1	14	14
75	CC1(c2ccc3c(c2)OCO3)NC(=O)NC1=O (stereo not drawn)	6	3
76	C=CCN(Cc1ccccc1Cl)C(=O)c1ccc2nccn2c1	8	-1
77	Nc1c(C(=O)CSc2nnc3ccccn23)c(=O)[nH]c(=O)n1C1CC1	9	14
78	CC1CCN(c2ccc(NC(=O)c3ccccc3Br)cc2C(=O)NCCc2ccccc2)CC1	-1	10
79	COC(=O)c1cc2c(=O)n(-c3ccc(C(C)C)cc3)ccc2nc1C	1	-1
80	O=C(Nc1ccc(N2CCCC2=O)c(Cl)c1)c1cccs1	-12	-10
81	COc1cccc(COc2c[nH]c(C(=O)Nc3ccc(Cl)cc3)cc2=O)c1	2	1
82	Cc1ccc2oc(CN(C(=O)C3C[C@@H]3c3ccccc3)C(C)C)nc2c1 (stereo partly drawn)	6	1
83	CCNC(=O)N1CCN(c2nc(-c3ccccc3)nc(COC)c2Cc2cc(C)ccc2C)CC1	7	16
84	C=CCn1c(SCC(=O)N2CCCCC2)nc2sc3c(c2c1=O)CCC3	-6	-11
85	CCCN(Cc1nc(COC)c(Cc2ccc(C)cc2)c(=O)[nH]1)C(=O)NC(C)(C)C	10	2
86	O=C(CCn1nnc2ccccc21)NC1CCC(n2cnnc2)CC1 (stereo not drawn)	-1	-5
87	O=C(NCC1CCN(Cc2ccc(CO)o2)C1)NC1CCCC1 (stereo not drawn)	-2	-3
88	COc1cccc2c1OCC(C(=O)Nc1sccc1C#N)=C2	7	6
89	CN1CCN(Cc2ccc(Cl)cc2)C(c2ccncc2)CC1=O (stereo not drawn)	24	14
90	Cc1ccnn1-c1ccc(C(=O)NCC2CN(C3CC3)CCO2)cc1 (stereo not drawn)	8&12	3&5

Exported field by field: entries from further up
(62) CC(=O)N1CCC(C(=O)N2CCC(C(=O)NC(c3ccc(F)cc3)c3ccc4ccccc4n3)CC2)CC1 (stereo not drawn)
  NPYLR7 agonist: -3
  NPYLR7 agonist max-min: -12
(67) CC(OCC(O)CN1CCN(S(=O)(=O)c2cccc(F)c2)CC1)c1ccc(Cl)cc1 (stereo not drawn)
  NPYLR7 agonist: -2
  NPYLR7 agonist max-min: -7

Remaining list, next part:
no.	Compound	NPYLR7 agonist	NPYLR7 agonist max-min
91	CCOC(=O)c1sc(Nc2nc3c(F)cccc3s2)cc1C	-4	-6
92	COc1ccc(NC(C)=O)cc1NC(=O)c1cn(C)c2c(=O)n(-c3ccccc3)c(=O)[nH]c12	3	3
93	Cc1ccn2c(=O)nc(SCC(=O)NC(C)C)nc2c1	0	-3
94	FC(F)Oc1ccc(NC(=S)NNC(=S)Nc2cccnc2)cc1	3	1
95	CCOC(=O)CC1(Cc2ccccc2)C(=O)CC(C)(C)CC1=O	-6	-10
96	CCN1CCN(c2c(CN(Cc3ccccc3Cl)CC(C)C)c(C)nn2-c2cccc(F)c2)CC1	7	34
97	CCOCCOC(=O)C1=C(C)N(C)C(=O)NC1c1cccc([N+](=O)[O-])c1 (stereo not drawn)	-3	-7
98	CCCc1nn2c(N)c(C=C3C=C(Cl)C(=O)C(Cl)=C3)c(=O)nc2s1	51*	47*
99	CC(=O)c1cc2ccccc2oc1=O	2	-4
100	CCc1cccc(C)c1NC(=O)CSc1nnc(CCc2c(C)[nH]c(=O)[nH]c2=O)o1	-6	-14
101	CC1CCCCN1S(=O)(=O)NC1COc2ccccc2C1 (stereo not drawn)	6	0
102	CC(C)OC(=O)CN1CCCC1c1ccccc1Cl (stereo not drawn)	11	7
103	COCCCN(Cc1ccc(F)c(F)c1)Cc1cccn1Cc1ccc(C(F)(F)F)cc1	1	6
104	Nc1nc(-c2ccccc2Cl)c(-c2ccccc2Cl)s1	1	-1
105	O=C([C@H]1CCCN1)N1CCC(c2[nH]ncc2-c2cccc(F)c2)CC1	1	10

Molecules listed so far containing an aryl thioether with sulfur outside any ring:
no.	Compound	NPYLR7 agonist	NPYLR7 agonist max-min
4	CCCSc1nsc(N)n1	3	7
15	CCCc1cc(=O)[nH]c(SCc2cn3cc(C)ccc3n2)n1	-9&-3	-10&0
18	CCCn1c(SCc2nc(N)nc(N)n2)nc2sc3c(c2c1=O)CCC3	-3	3
39	CC(C)CCn1c(Sc2nc3ccccc3[nH]2)nc2c1c(=O)[nH]c(=O)n2C	2	0
44	Cc1ccnc(SCc2cc(=O)n3[nH]c(C)c(-c4ccccc4)c3n2)n1	-4	-4
49	CSc1ccc(-c2nc(CN3CCN(c4cnccn4)CC3)c(C)o2)cc1	2	4
64	COc1ccc(C=Nc2ccccc2Sc2c(C)n[nH]c2C)cc1OC	8	6
71	O=C(CSc1ccc(F)c(F)c1)N1CCCCC1C1OCCO1 (stereo not drawn)	15	11
77	Nc1c(C(=O)CSc2nnc3ccccn23)c(=O)[nH]c(=O)n1C1CC1	9	14
84	C=CCn1c(SCC(=O)N2CCCCC2)nc2sc3c(c2c1=O)CCC3	-6	-11
93	Cc1ccn2c(=O)nc(SCC(=O)NC(C)C)nc2c1	0	-3
100	CCc1cccc(C)c1NC(=O)CSc1nnc(CCc2c(C)[nH]c(=O)[nH]c2=O)o1	-6	-14

Screens from PubChem.
